# Bioassay records deposited in PubChem BioAssay by National Center for Advancing Translational Sciences (NCATS).
# B2AR arrestin: beta2AR (human) beta-arrestin recruitment activity. actives 0.02% (n = 330,000). beta-arrestin recruitment to beta2AR, cell-based reporter. Potency, µM (series often up to 46.1 µM), for inactives: at the top dose activation, usual class: activators. P07550;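 further: potency means the concentration at half of the fitted maximal effect; 0% = DMSO controls and full agonism = EC100 isoproterenol or metaproterenol; nearly all actives have a fitted effect of over 65% in size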
# Giardia kill: kills Giardia lamblia. Giardia lamblia trophozoite viability. activity change, % at 7.66 µM, hits read low. actives 0.15% (n = 340,000). AID 540267; in the data active means activity change below about -80%; inconclusive means between about -30% and that limit;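 further: parasites exposed to compound for two days anaerobically before the ATP read; on the % scale 0 is the no-effect control and ±100 the full control effect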
#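 Trophozoites 100 cells/well + cpd; 48 hrs, 37 deg C, anaerobic. ATPLite 1-Step added, 15-30 min RT, luminescence read (ATP-based viability).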
# Coupling enz: inhibits coupling enzyme system, counter-screen for aldolase hits | activity change, negative = inhibition, % at 58.2 µM, hits read low | coupling enzyme system counterscreen, AmpLite Red fluorescence | actives 0.67% (n = 290,000) | AID 2472; in the data active means activity change below about -30%; further: on the % scale 0 is the no-effect control and ±100 the full control effect
#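 Compounds tested against the coupling enzymes alone at 57.5 uM final; readout was AmpLite Red fluorescence (525/598 nm) after 20 min at RT.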
# GALK inhibitor: inhibitors of human galactokinase | Purified GALK, Kinase-Glo residual ATP luminescence | Potency, µM (highest dose often 57.5 µM), for inactives: at the highest dose activity change, negative = inhibition, usual class: inhibitors | actives 0.007% (n = 270,000) | AID 1868; further: potency means the concentration at half of the fitted maximal effect; on the % scale 0 is the no-effect control and ±100 the full control effect
#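 Kinase-Glo Plus luminescence measured ATP left after a 1 h room-temperature reaction. The reaction used 5 nM GALK, 100 uM galactose and 35 uM ATP at pH 8.0 (20 mM HEPES, 5 mM MgCl2, 60 mM NaCl, 1 mM DTT, 0.01% BSA).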
# USP2a block: USP2a (human) protease inhibition; AID 463254; actives 0.01% (n = 330,000); Potency, µM (highest dose often 38.3 µM), without a hit: top-dose activity change, negative = inhibition, usual class: inhibitors; USP2 core, Ub-CHOP2 coupled fluorogenic reporter, 485/531;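 further: potency means the concentration at half of the fitted maximal effect; plate controls were DMSO wells for no effect and full inhibition by NEM control for full effect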
# Target sequence (O75604 whole entry, looked up): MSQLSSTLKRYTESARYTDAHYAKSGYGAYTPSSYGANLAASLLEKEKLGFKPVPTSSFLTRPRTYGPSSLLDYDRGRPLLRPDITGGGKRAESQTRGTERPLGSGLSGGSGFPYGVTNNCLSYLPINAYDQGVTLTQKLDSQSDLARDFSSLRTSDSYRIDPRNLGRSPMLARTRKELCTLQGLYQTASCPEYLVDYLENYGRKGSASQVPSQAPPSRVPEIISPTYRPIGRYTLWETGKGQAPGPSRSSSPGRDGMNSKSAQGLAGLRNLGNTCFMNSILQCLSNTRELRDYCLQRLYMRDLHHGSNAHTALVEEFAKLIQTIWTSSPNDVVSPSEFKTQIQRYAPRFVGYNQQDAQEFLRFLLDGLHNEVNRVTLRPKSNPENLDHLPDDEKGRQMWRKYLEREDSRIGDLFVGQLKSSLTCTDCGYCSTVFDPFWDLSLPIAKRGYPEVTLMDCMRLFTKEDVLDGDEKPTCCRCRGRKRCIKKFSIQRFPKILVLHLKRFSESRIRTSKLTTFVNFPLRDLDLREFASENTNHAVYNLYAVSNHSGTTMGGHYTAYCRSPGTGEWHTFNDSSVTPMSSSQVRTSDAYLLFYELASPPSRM
#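 Cell-free coupled assay: 10nM USP2 core preincubated 30min RT with compound in Tris-HCl pH 8.0/CaCl2/CHAPS buffer, then 25nM Ub-CHOP2 and 25nM reporter substrate; fluorescence (Ex 485/Em 531) read after 60min RT, normalized to NEM inhibition, concentration-response curves fitted.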
# MLL CXXC-DNA inh: MLL CXXC-DNA interaction inhibition; Q03164; MLL-CXXC / FITC-HOXA9 DNA fluorescence polarization; Potency, µM (titrated, usually from 115 µM), inactives show at the top dose activity change, negative = inhibition, actives largely listed as inhibitors; actives 0.037% (n = 290,000); AID 2662; active means well fitted inhibition curve with a large enough effect in the polarisation, with a control signal flat, not every such curve was filed as active; inconclusive means small, poorly fitted or top-dose-only effect, or effect the other way, or a change in a side signal; inactive means no such curve, though single readings can be large or run the other way; the % refers to the polarisation; further: potency means the concentration at half of the fitted maximal effect
#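 Steps: dispense CXXC domain solution (7 uM) → pin compounds or unlabeled HOX-A9 DNA control → 5 min ambient → add FLSN-HOX-A9 solution (50 nM) → spin → 30 min ambient → fluorescence polarization. Tris pH 7.5/NaCl/DTT/BSA buffer.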
# Active calls of the source: *; u = inconclusive; x = no result given; & = joins results of further samples; ! = repeats disagree; [ ] = remark or other dose. Unless noted, the call rests on the fitted dose curve; in most records, active means well fitted curve in the direction sought with a large enough effect; inconclusive means small, poorly fitted or top-dose-only effect, or another doubt; inactive means no such curve, though single readings can be large; an effect the other way counts as inactive or inconclusive.
no. | structure | B2AR arrestin | Giardia kill | Coupling enz
1 | CC(C)(C)[C@]1(O)CCN2CC3c4ccccc4CCc4cccc(c43)[C@@H]2C1 (some centres undefined) | x | x | x
2 | CCCCC/C=C\C/C=C\C/C=C\CCCCC(=O)O | 0.1% | 2 | 2
3 | CC1(C)OC2CC3C4CC(F)C5=CC(=O)C=CC5(C)C4C(O)CC3(C)[C@]2(C(=O)CO)O1 (some centres undefined) | x | x | 0
4 | CC(C)(C)[C@]1(O)CCN2C[C@H]3c4ccccc4CCc4cccc(c43)[C@@H]2C1 | -0.2% | 10 | -1
5 | CC1=C(CC(=O)O)c2cc(F)ccc2/C1=C/c1ccc(S(C)=O)cc1 (centres undefined) | -0.1% | 0 | 3
6 | CC1(C)O[C@@H]2C[C@H]3[C@@H]4C[C@H](F)C5=CC(=O)C=C[C@]5(C)[C@H]4[C@@H](O)C[C@]3(C)[C@]2(C(=O)CO)O1 | -0.1% | u | x
7 | C[C@@H]1C[C@@H]2[C@H]3CCC4=CC(=O)C=C[C@]4(C)[C@]3(F)[C@@H](O)C[C@]2(C)[C@@]1(O)C(=O)CO | x | x | 1
8 | CC1CS(=O)(=O)CCN1N=Cc1ccc([N+](=O)[O-])o1 (centres undefined) | -0.1% | u | x
9 | CCC(C)(C)n1nnnc1CN1CCN(c2nc3cc(OC)ccc3cc2C#N)CC1 | 0.0% | 0 | 1
10 | Cc1ncc(C[n+]2csc(CCO)c2C)c(N)n1 | -0.1%&0.0% | 13&17 | 4&3

no. | GALK inhibitor | USP2a block | MLL CXXC-DNA inh
1 | x | x | 2%&1%
2 | x | 1% | -4%
3 | x | x | x
4 | -2% | 5% | -8%
5 | 2% | 0% | u
6 | x | 1% | x
7 | x | x | x
8 | x | 1% | x
9 | 8% | -1% | -3%
10 | x | 3%&-6% | -5%

# Next compounds follow.
no. | structure | B2AR arrestin | Giardia kill | Coupling enz
11 | C[C@]12C=CC(=O)C=C1CCC1C2C(O)C[C@]2(C)C1CC[C@]2(O)C(=O)CO (some centres undefined) | x | x | 3
12 | CO[C@]12C(COC(N)=O)C3=C(C(=O)C(C)=C(N)C3=O)N1CC1NC12 (some centres undefined) | x | x | -40*
13 | C/C(=N\NC(=O)c1ccc(NS(=O)(=O)c2cccs2)cc1)c1ccccc1 | -0.9% | 10 | -1
14 | NC(CO)C(=O)NNCc1ccc(O)c(O)c1O (centres undefined) | -1.3% | -4 | -53*!
15 | C[C@@]12C[C@@H](O)[C@H]3[C@@H](CCC4=CC(=O)CC[C@]43C)[C@H]1CC[C@H]2C(=O)CO | x | x | 1
16 | C[C@H]1CS(=O)(=O)CCN1/N=C\c1ccc([N+](=O)[O-])o1 | x | x | 1

no. | GALK inhibitor | USP2a block | MLL CXXC-DNA inh
11 | x | x | 0%
12 | x | x | -9%
13 | 0% | -1% | 16%
14 | -1% | 8% | -4%&14%
15 | x | x | x
16 | x | x | -1%[51.4 µM]

# Ordered by SMILES length (falling): part of the list above.
no. | structure | B2AR arrestin | Giardia kill | Coupling enz
7 | C[C@@H]1C[C@@H]2[C@H]3CCC4=CC(=O)C=C[C@]4(C)[C@]3(F)[C@@H](O)C[C@]2(C)[C@@]1(O)C(=O)CO | x | x | 1
15 | C[C@@]12C[C@@H](O)[C@H]3[C@@H](CCC4=CC(=O)CC[C@]43C)[C@H]1CC[C@H]2C(=O)CO | x | x | 1
3 | CC1(C)OC2CC3C4CC(F)C5=CC(=O)C=CC5(C)C4C(O)CC3(C)[C@]2(C(=O)CO)O1 (some centres undefined) | x | x | 0
11 | C[C@]12C=CC(=O)C=C1CCC1C2C(O)C[C@]2(C)C1CC[C@]2(O)C(=O)CO (some centres undefined) | x | x | 3
12 | CO[C@]12C(COC(N)=O)C3=C(C(=O)C(C)=C(N)C3=O)N1CC1NC12 (some centres undefined) | x | x | -40*
13 | C/C(=N\NC(=O)c1ccc(NS(=O)(=O)c2cccs2)cc1)c1ccccc1 | -0.9% | 10 | -1
9 | CCC(C)(C)n1nnnc1CN1CCN(c2nc3cc(OC)ccc3cc2C#N)CC1 | 0.0% | 0 | 1
5 | CC1=C(CC(=O)O)c2cc(F)ccc2/C1=C/c1ccc(S(C)=O)cc1 (centres undefined) | -0.1% | 0 | 3
8 | CC1CS(=O)(=O)CCN1N=Cc1ccc([N+](=O)[O-])o1 (centres undefined) | -0.1% | u | x
10 | Cc1ncc(C[n+]2csc(CCO)c2C)c(N)n1 | -0.1%&0.0% | 13&17 | 4&3
14 | NC(CO)C(=O)NNCc1ccc(O)c(O)c1O (centres undefined) | -1.3% | -4 | -53*!

no. | GALK inhibitor | USP2a block | MLL CXXC-DNA inh
7 | x | x | x
15 | x | x | x
3 | x | x | x
11 | x | x | 0%
12 | x | x | -9%
13 | 0% | -1% | 16%
9 | 8% | -1% | -3%
5 | 2% | 0% | u
8 | x | 1% | x
10 | x | 3%&-6% | -5%
14 | -1% | 8% | -4%&14%

# Only part of the results is shown (hit frequency here may not be typical).
